# Rango release inh: qHTS Assay for Inhibitors of RanGTP induced Rango (Ran-regulated importin-beta cargo) - Importin beta complex dissociation | Biochemical FRET Rango-importin beta, RanGTP-induced dissociation | Snurportin-1 (Homo sapiens) + GTP-binding nuclear protein Ran (Homo sapiens) + Importin … | AID 540253, 2011 | 0.071% of 340,000 active | Potency, µM (series often up to 46.1 µM), inactives show at the top dose activity change, negative = inhibition; active means falling FRET ratio curve, often poorly fitted, with flat reads before Ran was added; inconclusive means other falling curves, or compound fluorescence or quenching; inactive means flat or rising ratio curve;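 further: potency means the concentration at half of the fitted maximal effect; % of control where 0% means no effect; nearly all actives have a fitted effect of over 45% in size; -100% = wells without RanGTP and RCC1; the record marks most hits as doubtful in a second field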
#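 FRET read at 45 min, room temperature: inhibitors block the CFP/YFP signal rise when RanGTP (0.6 uM Ran, 2 mM GTP, 0.2 uM RCC1) frees Rango (0.1 uM) from importin beta (0.25 uM). Pre-read after 5 min compound exposure flags interference.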
# Rango complex inh: qHTS Assay for Inhibitors of Rango (Ran-regulated importin-beta cargo) - Importin beta complex formation | Rango CFP/YFP FRET sensor + importin beta, 45 min | 0.031% of 340,000 active | Potency, µM (series often up to 92.2 µM), without a hit: at the top dose inhibition of complex formation | Importin subunit beta-1 (Homo sapiens), Q14974 | AID 540263, 2011; active = rising FRET ratio curve, often small or poorly fitted; inconclusive = mostly compound fluorescence or quenching in the first reads; inactive = flat curves in all reads;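 further: potency means the concentration at half of the fitted maximal effect; 0% = DMSO wells and 100% = buffer wells lacking importin beta; nearly all actives have a fitted effect of over 15% in size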
#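 FRET biosensor Rango (snurportin 1 IBB between N-terminal EYFP and C-terminal Cerulean), 50 nM in PBS/1 mM DTT/0.02% Tween-20/0.1% BSA, preincubated 5 min RT with compound; 0.125 microM importin beta added, 45 min RT, CFP/YFP FRET ratio read.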
# GLA inh pH 4.5: qHTS Assay for Inhibitors of Human alpha-Galactosidase at pH 4.5 | activity change, negative = inhibition, % at 105 µM | purified enzyme, 4-MU-alpha-Gal fluorescence, pH 4.5 | Alpha-galactosidase A (Homo sapiens), P06280 | 230,000 tested, under 10 active | AID 1467, 2008; inconclusive = small, poorly fitted or top-dose-only inhibition, or a rising curve; inactive = flat fitted curve, though single readings scatter; no compound was filed as active;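 further: 0% = full activity with enzyme and -100% = basal without enzyme; dose as in the result columns while the protocol names 77 µM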
# Target sequence (P06280 whole entry, looked up): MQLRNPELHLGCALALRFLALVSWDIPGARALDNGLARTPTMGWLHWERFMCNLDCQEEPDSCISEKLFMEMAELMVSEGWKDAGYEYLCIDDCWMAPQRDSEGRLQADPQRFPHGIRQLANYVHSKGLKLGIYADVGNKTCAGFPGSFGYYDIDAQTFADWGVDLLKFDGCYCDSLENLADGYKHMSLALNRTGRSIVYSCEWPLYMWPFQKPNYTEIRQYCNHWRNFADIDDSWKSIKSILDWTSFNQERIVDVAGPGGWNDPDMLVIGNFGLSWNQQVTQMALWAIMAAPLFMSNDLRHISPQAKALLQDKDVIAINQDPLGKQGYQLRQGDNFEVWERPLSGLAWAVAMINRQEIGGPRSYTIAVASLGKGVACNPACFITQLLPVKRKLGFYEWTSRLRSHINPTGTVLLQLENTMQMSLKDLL
# miR-21 FLuc: qHTS Assay for Modulators of miRNAs and/orActivators of miR-21; HeLa miR-21 FLuc reporter, luciferase, 48 h; Potency, µM (highest dose often 38.3 µM), for the others: at the highest dose reporter change, positive = more light; 340,000 tested, under 10 active; AID 2288, 2010; active = well fitted rising curve with a large enough effect; inconclusive = small, poorly fitted or top-dose-only effect; inactive = no such curve, though single readings can be large or run the other way;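 further: % of control where 0% means no effect; miR-21 action dims this reporter so a rising signal means less miR-21 action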
#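 HeLa cells stably expressing CMV-driven firefly luciferase with a downstream miR-21 binding sequence, endogenously expressing miR-21, were treated with titrations (up to about 40uM final) for 48 hours at 37 degree Celsius. Luciferase luminescence was read after lysis.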
# An asterisk follows results filed as active; ? = inconclusive; · = not tested or not shown; & = joins results of further samples. An excerpt; rates above refer to the full screens.
SMILES,Rango release inh,Rango complex inh,GLA inh pH 4.5,miR-21 FLuc
CCOC(=O)c1sc2nc(C3CC3)cc(-c3ccc(OC)cc3)c2c1N,?,?,8,0%
O=C(CSc1ccccc1C(=O)NCc1ccccc1)NC12CC3CC(CC(C3)C1)C2,?,-1.1%,6,1%
CC(C)(C)c1ccc(C(=O)N2CCN(C(=O)C3CCCCC3)CC2)cc1,7%,-0.8%,·,1%
O=C(COc1ccc(Cl)cc1)NCc1nnc2c3ccccc3c(-c3ccccc3)nn12,26%,2.1%,-10,-5%
NC(=O)CSc1cn(Cc2ccccc2)c2ccccc12,5%,0.2%,6,?
CC(C)Cc1cc(C(=O)Nc2cccc(O)c2)no1,1%,-2.1%,-3,27%
Cc1ccccc1N(CC(=O)NCCSCc1ccco1)S(C)(=O)=O,0%,-2.3%,8,-4%
Cn1c(SCC(=O)Nc2ccccc2)nnc1-c1ccc(NC(=O)CCc2ccccc2)cc1,7%,0.6%,0,-3%
COc1ccc(-c2nnc(SC(C)C#N)o2)cc1 (centres undefined),0%,0.1%,0,-23%
COc1cc(N2CCCC2)c(OC)cc1/C=C(/C#N)c1cccc(F)c1,?,?,-4,-1%
CC(C)CC(NC(=O)C1CCC(C)CC1)C(=O)Nc1ccc2c(c1)OCCO2 (centres undefined),-5%,2.3%,-15,-43%
O=C(Nc1ccccc1)c1c(F)c(F)c(F)c(F)c1F,-16%,0.3%,-7,2%
COC(=O)Cc1c(O)ccn(CCc2ccc(S(N)(=O)=O)cc2)c1=O,19%,4.8%,·,0%
Cc1oc2c(c1C(=O)N1CCC(C)CC1)C(=O)c1ccccc1C2=O,18%,-1.3%,-7,25%
COc1ccc2nc(NC(=O)CSc3nnnn3C3CCCCC3)sc2c1,4%,-5.1%,-2,-3%
CC(C)(Oc1ccc(Cl)cc1)C(=O)Nc1ccncc1,-12%,-0.5%,-1,13%
CCCCn1nc(C(=O)N(CC(C)C)c2c(N)n(CCCC)c(=O)[nH]c2=O)c2ccccc2c1=O,-18%,-2.2%,·,·
CC1CN(CCOc2ccc(Cl)c(Cl)c2)CC(C)O1 (centres undefined),-15%,0.1%,·,-15%
COc1ccc(OC(C)C(=O)Nc2ccccc2C(F)(F)F)cc1 (centres undefined),-1%,0.0%,-8,17%
CCCc1nc(SCc2cccnc2)c2c(=O)n(C)c(=O)n(C)c2n1,0%,3.4%,5,1%
N#Cc1c(-c2ccccc2)cc(-c2ccccc2)nc1Br,1%,0.3%,-1,1%
CCOc1ccc(CC(=NCCO)C2=C(O)CC(C)(C)CC2=O)cc1OCC,-7%,-0.2%,-7,-6%
CCC(C)(C)C1CCc2[nH]nc(C(=O)NCCNC(=O)OC(C)(C)C)c2C1 (centres undefined),2%,-2.8%,·,·
CCOc1ncccc1C(=O)NCc1ccc(OC)c(OC)c1,11%,-1.2%,-1,-10%
CN(/N=C/c1cccc(Br)c1)C1=NS(=O)(=O)c2ccccc21,0%,10%,·,-6%
COc1cccc(Nc2ccccc2C(=O)O)c1,-28%,-3.2%,2,-23%
COCCNc1nc(N2CCCCC2)c2cnn(C)c2n1,0%,0.7%,·,-2%
O=C1CC2(CCN(C(=O)COc3ccccc3F)CC2)Oc2ccccc21,12%,5.5%,·,·
CC(=O)Nc1ccc(S(=O)(=O)NCCS(=O)(=O)N2CCN(c3ccccc3F)CC2)cc1,9%,3.6%,·,14%&14%
CC1(C)CC(=O)c2cnc(NC(=O)CCc3ccccc3)nc2C1,3%,-0.3%,-2,-2%
Cc1nn(C)cc1/C=C1\SC(=S)NC1=O,0%,-0.3%,-1,0%
CCOC(=O)c1ccc(NC(=O)c2nn(CC)cc2Br)cc1,-4%,0.5%,-14,-36%
COC(=O)c1ccc(C(C(=O)NCc2ccccc2)N(Cc2ccco2)C(=O)c2cnccn2)cc1 (centres undefined),-2%,-1.2%,-4,5%
COc1cccc(N2CCN(C(=O)c3ccc4nc(N5CCCCC5)sc4c3)CC2)c1,-6%,1.0%,-24,-41%
COc1ccc(C(CCc2ccc(C)o2)NC(=O)Nc2ccc(OC)cc2OC)cc1 (centres undefined),8%,1.3%,-7,1%
O=C(NC(=S)N1CCCCC1)c1cccnc1,19%,0.0%,3,1%
O=S(=O)(NCc1ccccc1)c1cccs1,0%,-0.7%,2,-4%
O=C1C=C(c2cc(Cl)cc(Cl)c2)C[C@@H](c2ccc3c(c2)OCO3)C1,2%,4.2%,·,·
COc1ccc(/C=N/NC(=O)c2ccc(Br)cc2)c(OC)c1,-7%,0.2%,-16,-3%
CSc1ncccc1C(=O)OCC(=O)NCCc1ccccc1,-17%,-0.8%,·,·
O=C(NNC(=S)Nc1ccccc1)C1CC1,-4%,-0.1%,-1,-4%
COC(=O)c1cc(-c2ccc(S(=O)(=O)N3CCCC(C)C3)cc2)c(C(F)(F)F)s1 (centres undefined),4%,-0.6%,-2,0%
CCC(NC(=O)c1ccccc1NC(=O)c1ccc(OC)cc1)C(=O)N1CCCC1 (centres undefined),23%,-1.5%,-2,-60%
COc1ccccc1C(c1c(O)nc(SC)[nH]c1=O)c1c(O)nc(SC)[nH]c1=O,8%,3.4%,·,·
O=C(NCC1CCCO1)C(Cc1ccccc1)N1C(=O)C2C3C=CC(C4CC34)C2C1=O (centres undefined),-2%,2.8%,-2,7%
Cc1ccc(C)c(Cc2c(C)nc(C)[nH]c2=O)c1,4%,-2.2%,2,1%
Cc1nn(Cc2c(F)c(F)c(F)c(F)c2F)c(C)c1NC(=O)c1cccc(COc2ccc(Cl)cc2)c1,-1%,-1.6%,-8,-65%
COc1ccccc1NS(=O)(=O)c1cccc(C(=O)N/N=C(\C)c2cccnc2)c1,1%,0.6%,·,·
O=C(NCc1ccccn1)C1CCN(S(=O)(=O)c2ccc(Br)cc2)CC1,2%,-1.0%,·,-1%
CSc1ccc(NC(=O)N2CC(C)OC(C)C2)cc1 (centres undefined),-5%,-0.2%,4,-9%
COc1ccc(NC(=O)C(NC(=O)c2ccc(C)cc2)c2ccccc2)cc1 (centres undefined),13%,3.2%,·,-32%
COc1cc(C(=O)NNC(=O)CNC(=O)C2CCCCC2)ccc1OC(C)C,1%,3.5%,·,·
COc1ccc(S(=O)(=O)N2CCN(C(C)C(=O)Nc3ccc(C(C)C)cc3)CC2)cc1 (centres undefined),2%,1.6%,·,·
C/C(=N\NC(=O)c1ccc(OC2CCCC2)cc1)c1ccc(O)cc1,8%,3.7%,·,6%
NNC(=O)Cn1nc(Cc2ccccc2)n(N)c1=O,6%,-1.1%,·,·
Cc1ccc(S(=O)(=O)c2cc3c(=O)n4cccc(C)c4nc3n(CCc3ccccc3)c2=N)cc1C,2%,-0.4%,·,·
C=CCn1c(COc2ccc(F)cc2)nnc1SCC(=O)NC1CC1,9%,-0.2%,·,·
CC(=O)Oc1cccc(/C=c2\sc3nc(-c4ccco4)nn3c2=O)c1,-4%,-2.4%,-11,-3%
Cc1c(C(=O)Nc2ccc(N3CCOCC3)cc2)cccc1[N+](=O)[O-],0%,-2.3%,-7,2%
CC(C)c1ccc(NC(=O)C2CCCN(S(=O)(=O)c3ccc4c(c3)C(C)(C)C(=O)N4C)C2)cc1 (centres undefined),5%,3.4%,·,25%
# The results go on:
SMILES,Rango release inh,Rango complex inh,GLA inh pH 4.5,miR-21 FLuc
O=C(c1cc2ccccc2[nH]1)N(Cc1cccnc1)CC1CCCN(C2CCCCC2)C1 (centres undefined),-11%,?,·,-24%
O=C(c1ccc(N2CCCCC2)c([N+](=O)[O-])c1)N(Cc1ccccc1)c1ccccn1,38%,-2.6%,-11,0%
CCCCCCCC1(C)NC(=O)N(c2ccccc2)N1 (centres undefined),2%,-0.3%,4,6%
Cn1c(SCc2ccccn2)nc2c1c(=O)[nH]c(=O)n2C,2%,-1.1%,-5,-3%
C/C(=N\NC(=S)Nc1ccccc1C)c1cc2ccccc2o1,-5%,?,4,-8%
O=C1c2oc3ccc(Br)cc3c(=O)c2C(c2cccnc2)N1Cc1ccco1 (centres undefined),·,·,-2,-2%
CCC1CN(C(=O)N2CCC(C(=O)NCCc3ccc(OC)c(OC)c3)CC2)c2ccccc2O1 (centres undefined),-2%,-0.8%,·,11%&0%
CCC1C(=O)Nc2ccccc2N1C(=O)COc1ccccc1 (centres undefined),1%,-1.8%,·,-9%
CCC(C)(C)c1nnc(NC(=O)CCC2CCCCC2)s1,4%,2.4%,·,·
COc1ccc(Cl)cc1NC(=O)C(C)OC(=O)C1=NNC(=O)CC1 (centres undefined),21%,-3.9%,·,·
CCC1=C(OC(=O)N(CC)CC)N2C(=O)OC(=NCCc3c[nH]c4ccccc34)[C@]2(Cc2ccccc2)[C@H]2C1=CC[C@H]1C(=O)N(C)C(=O)[C@H]12,-7%,-1.3%,-16&-15,23%
O=C(O)c1nn(CCOc2cccc(Br)c2)c(=O)c2ccccc12,6%,1.7%,·,-1%
CC(=O)c1c(C)[nH]c(C(=O)NCCc2ccccc2)c1C,-4%,0.6%,1,-18%
COCc1cc(=O)[nH]c(N2CCN(Cc3ccc4c(c3)OCO4)CC2)n1,-6%,-2.6%,·,-3%
O=C(NNC(=S)NC(=O)c1ccc(F)cc1)c1cccnc1,-3%,-0.6%,·,-4%

# 5 entries picked at random from the list so far, as already listed:
SMILES,Rango release inh,Rango complex inh,GLA inh pH 4.5,miR-21 FLuc
CCC1C(=O)Nc2ccccc2N1C(=O)COc1ccccc1 (centres undefined),1%,-1.8%,·,-9%
Cn1c(SCc2ccccn2)nc2c1c(=O)[nH]c(=O)n2C,2%,-1.1%,-5,-3%
CC(=O)c1c(C)[nH]c(C(=O)NCCc2ccccc2)c1C,-4%,0.6%,1,-18%
CCC1CN(C(=O)N2CCC(C(=O)NCCc3ccc(OC)c(OC)c3)CC2)c2ccccc2O1 (centres undefined),-2%,-0.8%,·,11%&0%
CCC1=C(OC(=O)N(CC)CC)N2C(=O)OC(=NCCc3c[nH]c4ccccc34)[C@]2(Cc2ccccc2)[C@H]2C1=CC[C@H]1C(=O)N(C)C(=O)[C@H]12,-7%,-1.3%,-16&-15,23%

# (continued)
SMILES,Rango release inh,Rango complex inh,GLA inh pH 4.5,miR-21 FLuc
CC(C)C(=O)Nc1ccc(Cc2ccc(NC(=O)C(C)C)c(O)c2)cc1O,-10%,-1.5%,3,-4%
CCCCN(CCCC)C(=S)NC(=O)C(C)(C)C,25%,2.2%,-3,4%
COc1cc(NC(=O)C(Cc2ccccc2)n2cccc2)cc(OC)c1 (centres undefined),8%,0.4%,-7,14%
O=C(CSc1ccccc1F)OCC(=O)N1CCN(C(=O)c2ccco2)CC1,0%,1.2%,·,·
CC(C)c1ccc(NC(=O)COC(=O)[C@@H]2CCCN2C(=O)c2cccs2)cc1,1%,-2.6%,·,·
CCN1C(=O)[C@H]2[C@@H](c3ccc(C)cc3)N3C(=O)N(c4ccc(C(F)(F)F)cc4)C(=O)[C@@]3(CC)[C@H]2C1=O,-9%,-5.7%,·,4%
COc1ccc(CNC2=CC(=O)CC(C)(C)C2)cc1,-13%,?,1,-1%
COc1ccc(Nc2cc(C)nc3nc(C)nn23)c(OC)c1,-9%,-4.6%,3,-6%
COc1cc(/C=C/c2ccccc2)cc(OC)c1,4%,0.6%,·,·
CCOC(=O)/C(C#N)=C/C1=C(N2CCOCC2)CC(C)(C)OC1,-17%,?,-7,-3%
CCOC(=O)C1=C(C)N=C(/N=C/N(C)C)SC1c1ccccc1 (centres undefined),-5%,-1.1%,9,8%
CCCCOc1ccc(/C=N/NC(=S)Nc2cc(C)ccc2C)cc1,13%,0.1%,-1,0%
COc1cc(/C=C2\SC(=Nc3c(C)n(C)n(-c4ccccc4)c3=O)NC2=O)ccc1O,18%,?,-17,-35%
Cc1ccnc(NC(=O)c2ccc(Cl)s2)c1,-6%,-1.9%,·,-49%
CCN1CCN(c2ccc(NC(=O)c3cc4ccccc4cc3OC)cc2C)CC1,1%,3.9%,·,·

# Screens: PubChem BioAssay, National Center for Advancing Translational Sciences (NCATS)
